From PubChem BioAssay
VDR inhibitor: blocks the human vitamin D receptor. P11473. VDR-SRC2-3 peptide fluorescence polarization, 2 h. Potency, µM, without a hit: max response, negative = inhibition, usual class: inhibitors. 400,000 tested, 0.93% active. AID 504847; active = well fitted inhibition curve with a large enough effect; inconclusive = small, poorly fitted or top-dose-only effect, or another doubt; inactive = no such curve, though single readings can be large or run the other way; also: series mostly up to about 120 µM
Target sequence (P11473 whole entry, looked up): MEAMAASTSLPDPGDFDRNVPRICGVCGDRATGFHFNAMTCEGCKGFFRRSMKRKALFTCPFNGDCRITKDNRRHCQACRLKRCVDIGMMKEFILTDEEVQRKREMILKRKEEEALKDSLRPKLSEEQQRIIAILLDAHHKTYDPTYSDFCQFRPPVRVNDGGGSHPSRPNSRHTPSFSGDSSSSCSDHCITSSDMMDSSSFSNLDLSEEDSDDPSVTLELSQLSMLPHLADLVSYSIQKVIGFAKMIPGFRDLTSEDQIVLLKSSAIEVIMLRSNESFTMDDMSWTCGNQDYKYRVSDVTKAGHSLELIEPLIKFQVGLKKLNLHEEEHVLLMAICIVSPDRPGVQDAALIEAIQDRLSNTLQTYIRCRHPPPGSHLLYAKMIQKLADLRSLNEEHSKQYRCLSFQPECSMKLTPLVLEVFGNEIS
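Two reagent solutions held at 4 deg C in the dark were dispensed, compounds pinned at 23 nl, and the mixture incubated 2 h at room temperature. Read-out: fluorescence polarization of VDR–SRC2-3 peptide binding.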
* hit, by the source's call; ? = inconclusive; & = joins results of further samples. % is scaled to controls: 0 for no effect and ±100 for the full control effect; potency is read from the fitted curve at half-maximal effect. These rows are one share of the data. The share of hits here may be higher or lower than overall.

compound | VDR inhibitor
CCOP(=O)(OCC)C(=Cc1cc(C(C)(C)C)c(O)c(C(C)(C)C)c1)P(=O)(OCC)OCC | ?
Cc1ccc(S(=O)(=O)N(C)C/N=C(\N)N[N+](=O)[O-])cc1 | 5%
O=S(=O)(c1ccccc1)N1CCCCC1c1cccnc1 (stereo not given) | 12%
CN1CCc2nc3ccc(F)cc3c(C(N)=O)c2C1 | -1%
CC1C(c2ccccc2)OCCN1C (stereo not given) | 0%
COC(=O)C1=C(c2ccccc2OCc2ccccc2)C[C@@H]2CC[C@H]1N2C(=O)NCc1ccc(Cl)cc1 | 20%
CCC(=O)OC1(Cc2ccc(CC)cc2)CC(C)N(C)CC1C (stereo not given) | 13%
CC(C)c1ccccc1NC1=NCCCS1 | 3%
C(#CCN1CCOCC1)COCc1ccccc1 | 5%
COC(=O)C1=C(c2ccc(S(C)(=O)=O)cc2)C[C@@H]2CC[C@H]1N2C(=O)NCc1cccc2ccccc12 | -10%

Brought forward from above: three compounds, followed by the next part.
compound | VDR inhibitor
CC(C)c1ccccc1NC1=NCCCS1 | 3%
C(#CCN1CCOCC1)COCc1ccccc1 | 5%
COC(=O)C1=C(c2ccc(S(C)(=O)=O)cc2)C[C@@H]2CC[C@H]1N2C(=O)NCc1cccc2ccccc12 | -10%
CC(=O)O[C@H]1C(=O)[C@@]2(C)C([C@H](OC(=O)c3ccccc3)[C@]3(O)C[C@H](OC(=O)[C@H](O)[C@@H](NC(=O)Cc4ccccc4)c4ccccc4)C(C)=C1C3(C)C)[C@]1(OC(C)=O)CO[C@@H]1C[C@@H]2O (stereo not given in full) | -1%
CCC(=NCc1ccco1)c1c(O)n(-c2ccc(Cl)cc2)c(=O)[nH]c1=O | -21%
CCN(CC)CCCOC(=O)C(OC)(c1ccccc1)c1ccccc1 | -3%
CCN(CC)C(=O)c1ccc(NC(=O)c2ccc(-n3cncn3)c([N+](=O)[O-])c2)cc1 | -11%
O=C1C2CCCN2C(c2cccc(Cl)c2)N1c1ccccn1 (stereo not given) | 5%
CC(=O)OC(C)(C)/C=C/C(=O)C(C)(O)C1[C@H](O)C[C@@]2(C)C3CC=C4C(CC[C@@H](O)C4(C)C)[C@]3(CO)C(=O)C[C@]12C (stereo not given in full) | ?
CN1CCN(c2nc3c(c(=O)[nH]2)CCC3)CC1 | -1%
O=C1NC(=S)N(c2ccc(Cl)cc2)C(=O)/C1=C/N1CCN(C(=O)c2ccco2)CC1 | 11%
COc1ccccc1-n1c(/C=C/c2ccccc2)nc2ccccc2c1=O | -2%
c1cc(CN2CCC3(CCNCC3)CC2)ccn1 | 3%
N#C/C(N)=C(/N)C#N | 8%
Cc1c(F)c(F)c(COC(=O)C2C(/C=C(\Cl)C(F)(F)F)C2(C)C)c(F)c1F (stereo not given) | -4%
O=C(Cn1ncc2ccsc2c1=O)N1CCC2(CC1)OCCO2 | -4%
Fc1ccc(C2=CCN(C(c3cccs3)c3nnnn3CCc3ccccc3)CC2)cc1 (stereo not given) | -13%
NC(=O)c1ccc(N)nc1 | -6%&3%
Cc1ccc(NC(=O)N(Cc2ccc3c(c2)OCO3)C2CCN(Cc3ccccc3)CC2)cc1F | 4%
CCn1c(O)c(/C=N/NC(=O)c2ccccc2)c(=O)n(CC)c1=S | 7%
O=C(Nc1ccccc1)N1CCC2(CC1)OCCO2 | -5%
COCCCN1Cc2ccccc2C1=N | 7%
CC(C)OC(=O)Nc1cccc(Cl)c1 | 8%
COC(=O)C1=C(c2cc3ccccc3s2)C[C@@H]2CC[C@H]1N2C(=O)NCc1ccc(C(F)(F)F)cc1 | -6%
Cc1cc(N(CCCl)CCCl)ccc1C=NNC(=O)Cc1cc(=O)oc2cc(O)ccc12 | -11%
OCc1cnc[nH]1 | 7%&-24%
O=[N+]([O-])c1ccc(C2C3C(c4ccccc4)=NC4(CCCC4)N32)cc1 (stereo not given) | -17%
O=C(OC1Cc2c(O)cc(O)cc2OC1c1cc(O)c(O)c(O)c1)c1cc(O)c(O)c(O)c1 (stereo not given) | 50µM*
Cc1cc(C)cc(-n2c(/C=C/c3cccc(F)c3)nc3ccccc3c2=O)c1 | 7%
N#Cc1ccc(CN2CC[C@@]3(CCCN(C(=O)Oc4ccccc4)C3)C2)cc1 | ?
CC(C)Oc1ccc(C2C(C#N)=C(N)Oc3c2c(=O)oc2ccccc32)cc1 (stereo not given) | -3%
Cc1cccc(OC(=O)N2CCOCC2)c1 | 9%
CC(N)Cc1c[nH]c2cc3c(cc12)OCCO3 (stereo not given) | 2%
COc1ccc(C(C)=O)cc1CN1CC=C(c2ccccc2)CC1 | -7%
N#CCCn1cc(C(=O)Nc2ccccc2Br)c(-c2ccc3c(c2)OCCO3)n1 | ?
CN1CCN(c2ccc([N+](=O)[O-])c3cccnc23)CC1 | 25%
CCOP(=O)(C#CC(C)(C)C)C(C)(O)c1ccccc1 (stereo not given) | -1%
O=C1NC(=S)NC(=O)C1=Cc1ccc2c(c1)CCN2CCCCl | ?
Cc1ccc2scc(N3CCN(C)CC3)c(=O)c2c1 | 7%
OC(c1cccc(Cl)c1)(c1cccc(Cl)c1)C1CN2CCC1CC2 (stereo not given) | 13%
CC(C)C1(C)N=C(c2nc3ccccc3cc2C(=O)O)NC1=O (stereo not given) | 3%
Cc1ccc(-n2cc(CNC(C)Cc3cnccn3)c(-c3cccc(C)c3)n2)cc1 (stereo not given) | -4%
CN(C)N=O | -9%
Fc1cccc(C2NCCc3[nH]cnc32)c1 (stereo not given) | -18%
CCN(CC)C(=O)c1ccc(NC(=O)c2cccc(C(F)(F)F)c2)cc1 | 15%
COc1cc(C(c2c(O)c3ccccc3oc2=O)c2c(C)n(C)n(-c3ccccc3)c2=O)ccc1OCC(=O)O (stereo not given) | -11%
NCCCNCCCCNCCCNC(=O)Cc1ccc(O)cc1 | 2%
Cc1ccc(N2C(=O)NC(=O)/C(=C\c3cn(CC(=O)O)c4ccccc34)C2=O)cc1 | -19%
CCCCn1c(C)c(C(=O)O)c2cc(OC)ccc21 | -2%
COc1ccc(CN2C(=O)NC(=O)/C(=C/c3ccoc3)C2=O)cc1 | -18%
COc1ccccc1CN1CCN(C(=O)Cc2ccccc2)CC1 | 9%
N#CC1=C(N)Oc2c(c(=O)oc3ccccc23)C1c1ccccc1OC(=O)c1cccs1 (stereo not given) | -10%
CCCCC12CNCC(C)(CNC1)C2=O | -7%

(continued)
compound | VDR inhibitor
COC(=O)C1=C(c2ccc3ccccc3c2)C[C@@H]2CC[C@H]1N2C(=O)NC1CCCCC1 | -11%
Cc1cc(C=O)c(C)n1C1CCCCC1 | 29%
Cc1ccc(C(=O)C2(C)N(O)C(C)C(c3cccs3)=[N+]2[O-])cc1 (stereo not given) | 21%
Cc1nc2ccccc2c(=O)n1-c1ccncc1 | -9%
CN(C)C(=O)On1c(-c2ccccc2)nc2ccc(Cl)cc21 | -5%
Cc1c(C(c2ccc(Cl)cc2Cl)c2c(O)c3ccccc3oc2=O)c(=O)n(-c2ccccc2)n1C (stereo not given) | -12%&-3%
COC(=O)C1=C(c2ccc(Cl)c(C(F)(F)F)c2)C[C@@H]2CC[C@H]1N2C(=O)N1CCCC1 | -22%
CC(=O)c1c(O)n(C)c(=S)n(-c2ccccc2)c1=O | 3%
COC(=O)C1=C(c2ccccc2)C[C@@H]2CC[C@H]1N2C(=O)NCCNC(C)=O | -18%
O=C(Cn1ncc2c3ccccc3n(Cc3ccc(F)cc3)c2c1=O)N1CCC2(CC1)OCCO2 | 4%

Following part
structure	VDR inhibitor
Cn1cccc1/C=C1\C(=O)NC(=O)N(Cc2ccccc2Cl)C1=O	0%
C[C@@H]1CO1	-3%
CN1CCN(C(=O)O[C@H]2c3nccnc3C(=O)N2c2ccc(Cl)cn2)CC1	-5%&0%
Cc1ccc2c(c1)c(=O)c1c3n2CCN(CC#N)C3CC1 (stereo not given)	-7%
O=C(OCCN1CCOCC1)C1(c2ccccc2)CCCC1	14%
C=CCn1c(O)c(N=Nc2c(C)n(C)n(-c3ccccc3)c2=O)c(=O)[nH]c1=S	?
C#CCN1C(C)=C(C(=O)CCO)[C@@H](c2cccc(-n3oo3)c2)C(C(=O)OC)=C1C	?
CC(=O)Oc1ccc(/C=C/c2cc(OC(C)=O)cc(OC(C)=O)c2)cc1	5%
COCCn1cc(C(=O)N2CCC3(CC2)OCCO3)c2c3ccccc3n(C)c2c1=O	0%
COc1ccccc1OCC(=O)N1CCCC(N(C)Cc2ccccc2)C1 (stereo not given)	-4%
Cc1cccc(N2C(=O)NC(=O)/C(=C\c3ccc(N4CCOCC4)cc3)C2=O)c1	-11%
O=C(CCN1CCCCC1)NCC(=O)Nc1ccc(Br)cc1C(=O)c1ccccc1	1%
Cn1sc(Cl)cc1=O	-10%
O=C(NC(=S)N1C[C@H]2C[C@H](C1)c1cccc(=O)n1C2)c1ccc(F)cc1	-9%
C=CCc1cc(C=C2C(=O)NC(=O)NC2=O)cc(OC)c1OCc1ccc(C(=O)O)cc1	89µM*
CCCN(CCC)c1c([N+](=O)[O-])cc(C(F)(F)F)cc1[N+](=O)[O-]	11%

Reprinted at random: 2 records from the list.
structure	VDR inhibitor
Cc1ccc(NC(=O)N(Cc2ccc3c(c2)OCO3)C2CCN(Cc3ccccc3)CC2)cc1F	4%
C=CCn1c(O)c(N=Nc2c(C)n(C)n(-c3ccccc3)c2=O)c(=O)[nH]c1=S	?

The results go on.
structure	VDR inhibitor
CCCCCCN=C(CC)c1c(O)n(CCCC)c(=O)[nH]c1=O	-2%
CCCCCn1c(=O)c(C(=O)NCc2ccncc2)c(O)c2ccccc21	-8%
COc1ccc(N2CCN(C(CNC(=O)Oc3ccccc3)c3cccnc3)CC2)cc1 (stereo not given)	-3%
CCSC1=NN1c1cc(C)nc(N)n1	-24%
CCn1cc(C(=O)NCc2ccccc2)c2ccccc21	-2%
Cc1nnc(NC(=O)c2cccn(Cc3cccc([N+](=O)[O-])c3)c2=O)s1	-7%
CCC(=NCc1ccco1)c1c(O)n(Cc2ccccc2)c(=O)[nH]c1=O	-14%
O=C(CF)NC(NC(=S)Nc1cccc([N+](=O)[O-])c1)C(Cl)(Cl)Cl (stereo not given)	-10%

Reprinted from the part before: 6 entries, then new ones.
structure	VDR inhibitor
COc1ccc(N2CCN(C(CNC(=O)Oc3ccccc3)c3cccnc3)CC2)cc1 (stereo not given)	-3%
CCSC1=NN1c1cc(C)nc(N)n1	-24%
CCn1cc(C(=O)NCc2ccccc2)c2ccccc21	-2%
Cc1nnc(NC(=O)c2cccn(Cc3cccc([N+](=O)[O-])c3)c2=O)s1	-7%
CCC(=NCc1ccco1)c1c(O)n(Cc2ccccc2)c(=O)[nH]c1=O	-14%
O=C(CF)NC(NC(=S)Nc1cccc([N+](=O)[O-])c1)C(Cl)(Cl)Cl (stereo not given)	-10%
COc1cc(C(=O)O)cc(OC)c1OC	-9%
N#Cc1cccc(NC(=O)N2CC3(CCN(C(=O)Oc4ccccc4)CC3)C2)c1	-5%
Cc1ccc2c(c1)CC1(CN2C)C(=O)NC(=O)N(c2ccccc2C)C1=O (stereo not given)	-14%
Cc1cc(S(N)(=O)=O)ccc1N=Cc1c(O)n(-c2ccccc2)c(=O)[nH]c1=O	3%
CCCCC(=O)N/N=C/c1c(O)n(CCCC)c(=S)[nH]c1=O	-15%
CC1(O)C[C@]2(C)N(O)C3CCCC[C@@H]3N2O1 (stereo not given in full)	10%
CN(C)C(CSC(N)=O)CSC(N)=O	?
CP(=O)(Nc1ccc(Cl)cc1)c1nc2c(s1)CCCC2 (stereo not given)	-16%
Cc1ccc(C)c(OCC(=O)N2CCCN(C)CC2)c1	7%
COC(=O)C1=C(c2ccc(F)cc2OCc2ccccc2)C[C@@H]2CC[C@H]1N2C(=O)N1CCCCC1	5%
CCCn1ncc(C(=O)O)c1C	-6%
CN(C)C(=O)CSc1nnc([C@@H](N)Cc2ccccc2)o1	9%
CCCCC(=O)N/N=C/c1c(O)n(CCc2ccc(OC)c(OC)c2)c(=O)[nH]c1=O	-9%
CC1CCCCC12C(=O)NC(=O)NC2=O (stereo not given)	-10%
N#Cc1cc2c(nc1SCC(=O)Nc1ccc(Cl)c(C(F)(F)F)c1)C1CCN2CC1	-13%
C=CCn1c(O)c(C=NCCN2CCOCC2)c(=O)[nH]c1=S	2%
CCC(C)(S(=O)(=O)CC)S(=O)(=O)CC	14%
CN1CCN2c3ccccc3CC3(C(=O)N(C)C(=O)N(C)C3=O)C2C1 (stereo not given)	-12%
Cc1cc(C)c(-n2c(O)c(/C=N/NC(=O)c3ccncc3)c(=O)[nH]c2=O)c(C)c1	3%
CCCCN1C(=N)C(CC)(CC)C(=O)NC1=O	4%
Cc1cc(OC(C)C(=O)NCc2ccncc2)c2c3c(c(=O)oc2c1)CCC3 (stereo not given)	-2%
COC(=O)C1=C(c2cccc(OC)c2OC)C[C@@H]2CC[C@H]1N2C(=O)N1CCCC1	-2%
COC(COC(N)=O)C1=C(N2CC2)C(=O)C(C)=C(N2CC2)C1=O (stereo not given)	-16%
CC1(C(O)(C#CCN2CCCCC2)c2ccccc2)CCCC1 (stereo not given)	2%
Cc1cccc(OP(=O)(Oc2cccc(C)c2)OC(c2ccccc2)C(F)(F)F)c1 (stereo not given)	-7%
O=c1[nH]c(=S)n(CCC2=CCCCC2)c(O)c1/C=N/Nc1ccccc1	?
O=C1NC(=O)N(CCNc2ncc(C(F)(F)F)cc2Cl)C(=O)C1Cc1ccc(Cl)cc1 (stereo not given)	?
O=C(c1cccnc1)c1cc2ccccc2[nH]1	-3%
N#CC(C#N)=Cc1ccc(O)cc1	50µM*
CCOc1ccccc1CNCCc1ccc2c(c1)OCO2	-1%
CC(C)c1ccc(OCC(=O)N2CCN(CCc3ccncc3)CC2)cc1	-7%
COc1cc(OC)cc(C2(C#N)CCN(C)CC2)c1	-11%
CCCC(=O)NC1=C(N2CC2)C(=O)C(NC(=O)CCC)=C(N2CC2)C1=O	-4%
CC(Cc1ccccc1)NC(=O)CCCCC(=O)NC(C)Cc1ccccc1 (stereo not given)	-2%
